miR-21 FLuc = miR-21 reporter, rising signal; HeLa miR-21 FLuc reporter, luciferase, 48 h; Potency, µM (series often up to 38.3 µM), for the others: at the top dose reporter change, positive = more light; 340,000 tested, under 10 active; active = well fitted rising curve with a large enough effect; inconclusive = small, poorly fitted or top-dose-only effect; inactive = no such curve, though single readings can be large or run the other way;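 note: % of control where 0% means no effect; miR-21 action dims this reporter so a rising signal means less miR-21 action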
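HeLa cells stably expressing CMV-driven firefly luciferase with a downstream miR-21 binding sequence, endogenously expressing miR-21, were treated with titrations (up to about 40uM final) for 48 hours at 37 degree Celsius. Luciferase luminescence was read after lysis.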
Rango complex inh = prevents formation of the Rango-importin beta complex; Q14974; Rango CFP/YFP FRET sensor + importin beta, 45 min; Potency, µM (titrated, usually from 92.2 µM), without a hit: at the top dose inhibition of complex formation; hit rate 0.031% among 340,000; AID 540263; active = rising FRET ratio curve, often small or poorly fitted; inconclusive = mostly compound fluorescence or quenching in the first reads; inactive = flat curves in all reads;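 note: potency is the fitted concentration of half-maximal effect; 0% = DMSO wells and 100% = buffer wells lacking importin beta; nearly all actives have a fitted effect of over 15% in size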
Target sequence (Q14974 whole entry, looked up): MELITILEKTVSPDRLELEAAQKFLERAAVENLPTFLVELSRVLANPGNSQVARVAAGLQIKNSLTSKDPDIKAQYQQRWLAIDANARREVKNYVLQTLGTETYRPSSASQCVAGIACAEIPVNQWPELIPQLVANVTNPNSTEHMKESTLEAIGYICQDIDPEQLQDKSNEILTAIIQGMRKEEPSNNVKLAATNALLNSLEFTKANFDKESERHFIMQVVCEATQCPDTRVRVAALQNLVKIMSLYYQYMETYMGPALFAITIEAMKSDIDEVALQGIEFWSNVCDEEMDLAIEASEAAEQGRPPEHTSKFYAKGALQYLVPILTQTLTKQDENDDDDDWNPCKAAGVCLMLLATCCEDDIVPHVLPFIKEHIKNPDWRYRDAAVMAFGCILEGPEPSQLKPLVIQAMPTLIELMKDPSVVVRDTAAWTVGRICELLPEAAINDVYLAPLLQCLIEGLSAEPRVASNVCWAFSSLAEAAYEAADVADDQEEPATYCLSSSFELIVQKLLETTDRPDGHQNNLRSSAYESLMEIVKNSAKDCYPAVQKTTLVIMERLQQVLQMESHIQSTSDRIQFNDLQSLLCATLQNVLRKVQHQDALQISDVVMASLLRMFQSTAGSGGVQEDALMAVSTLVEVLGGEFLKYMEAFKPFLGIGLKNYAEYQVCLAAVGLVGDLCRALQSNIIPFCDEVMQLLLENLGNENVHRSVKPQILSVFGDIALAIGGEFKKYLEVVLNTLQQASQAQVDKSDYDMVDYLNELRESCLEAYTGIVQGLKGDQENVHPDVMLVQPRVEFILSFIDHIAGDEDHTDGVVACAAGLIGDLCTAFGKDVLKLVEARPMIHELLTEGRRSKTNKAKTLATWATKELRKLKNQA
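FRET biosensor Rango (snurportin 1 IBB between N-terminal EYFP and C-terminal Cerulean), 50 nM in PBS/1 mM DTT/0.02% Tween-20/0.1% BSA, preincubated 5 min RT with compound; 0.125 microM importin beta added, 45 min RT, CFP/YFP FRET ratio read.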
GLA inh pH 4.5 = blocks human alpha-galactosidase A at pH 4.5. 230,000 tested, under 10 active. activity change, negative = inhibition, % at 105 µM. AID 1467. purified enzyme, 4-MU-alpha-Gal fluorescence, pH 4.5; inconclusive = small, poorly fitted or top-dose-only inhibition, or a rising curve; inactive = flat fitted curve, though single readings scatter; no compound was filed as active;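 note: 0% = full activity with enzyme and -100% = basal without enzyme; dose as in the result columns while the protocol names 77 µM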
Rango dissoc inh = inhibitors of RanGTP-induced Rango-importin beta complex dissociation | Biochemical FRET Rango-importin beta, RanGTP-induced dissociation | Potency, µM (titrated, usually from 46.1 µM), inactives show top-dose activity change, negative = inhibition | hit rate 0.071% among 340,000 | AID 540253; active means falling FRET ratio curve, often poorly fitted, with flat reads before Ran was added; inconclusive means other falling curves, or compound fluorescence or quenching; inactive means flat or rising ratio curve;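 note: potency is the fitted concentration of half-maximal effect; % of control where 0% means no effect; nearly all actives have a fitted effect of over 45% in size; -100% = wells without RanGTP and RCC1; the record marks most hits as doubtful in a second field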
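Rango FRET biosensor (snurportin-1 IBB flanked by N-terminal EYFP and C-terminal CFP10) at 0.1 uM, with 0.25 uM importin beta in PBS, 1mM DTT, 0.02% Tween-20, 0.1% BSA. 0.6 uM Ran, 2mM GTP and 0.2 uM RCC1 were then added for 45 min at room temperature. Inhibition read as loss of FRET rise.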
* marks the source's active call; other numbers are inactive results; ? = inconclusive; · = not tested or not shown. Not all compounds are listed, so the mix of outcomes need not match the whole.

SMILES | miR-21 FLuc | Rango complex inh | GLA inh pH 4.5 | Rango dissoc inh
O=[N+]([O-])c1ccccc1-c1ccc(C(=S)N2CCCCC2)o1 | -56.9% | 0.3% | -10.9 | 5.8%
CC1CCN(C(=O)CN2C(=O)c3cccc4cccc(c34)C2=O)CC1 | -6.3% | -3.0% | 3.9 | 23.6%
Cc1nc2ccccc2c(=O)n1NC(=O)c1ccco1 | -1.6% | 0.2% | -1.0 | 0.9%
Cc1ccc(NC(=O)CSCC(=O)NCc2cccc(C(F)(F)F)c2)cc1 | · | -0.1% | · | -15.0%
CC(C)c1onc(C(=O)N2C(C)CCCC2C)c1[N+](=O)[O-] (configuration not stated) | 0.9% | -2.6% | -11.0 | -3.6%
COc1ccc(CN2CCN(S(=O)(=O)c3ccc(C)cc3)CC2)cc1Br | -11.5% | ? | -5.5 | -1.5%
CC1CCc2c(sc(Nc3nc4c(F)cccc4s3)c2C(N)=O)C1 (configuration not stated) | -18.8% | ? | -3.6 | ?
CC(C)(C)n1nnnc1C(c1cccs1)N1CCN(Cc2ccccc2)CC1 (configuration not stated) | -2.2% | -0.1% | -6.2 | 7.9%
COCC(C)NC(=O)COc1nncc2ccccc12 (configuration not stated) | -0.3% | 0.2% | 7.9 | 3.3%
Cn1cc([N+](=O)[O-])c(C(=O)Nc2ccc(Br)cn2)n1 | -13.5% | 3.4% | 11.1 | -16.6%
CCC(NC(=O)c1cc(COc2cc(C)c(Cl)c(C)c2)on1)c1ccncc1 (configuration not stated) | 18.3% | ? | · | 0.6%
O=C(Nc1ccc(S(=O)(=O)N2CCCC2)cc1)C1CC(=O)N(c2ccc(F)cc2)C1 (configuration not stated) | -0.8% | 1.0% | · | 1.0%
O=C(Nc1nnc(-c2ccc(Cl)cc2)o1)NC1CCCCC1 | -13.7% | 6.5% | 0.7 | 0.8%
O=C(COC(=O)/C=C/c1cccs1)NC1CCCCC1 | -1.8% | 0.2% | · | -8.7%
CC(c1ccco1)N(C(=O)c1ccccc1NS(=O)(=O)c1ccc(Cl)c([N+](=O)[O-])c1)c1ccccn1 (configuration not stated) | 19.0% | -5.5% | -5.5 | 1.3%
COc1ccc(N2CCN(C(c3cc4ccc(C)cc4[nH]c3=O)c3nnnn3C3CCCC3)CC2)cc1 (configuration not stated) | 0.1% | -2.5% | -13.7 | 30.0%
O=Cc1nc(-c2ccccc2Cl)n2ccccc12 | -13.1% | 5.2% | -2.8 | -0.3%
CC1CN(S(=O)(=O)c2cccc(C(=O)NN3CCN(C)CC3)c2)CC(C)O1 (configuration not stated) | -1.0% | -0.9% | 6.4 | -3.0%
C=C(C)CNC(=S)/N=c1\scc(C)n1CC | -7.0% | -2.8% | -10.4 | -6.1%
COc1cc(C(=O)NC(CCSC)C(=O)OCc2cc([N+](=O)[O-])cc3c2OCOC3)cc(OC)c1OC (configuration not stated) | -2.6% | -0.5% | -8.3 | 0.2%
O=C(CCl)Nc1c(C(=O)Nc2ccc3c(c2)OCCO3)oc2ccccc12 | 16.9% | -5.2% | · | 1.2%
CCc1cc(=O)oc2cc(OCC(=O)N3CCC(C(=O)O)CC3)ccc12 | 0.0% | 3.3% | · | -16.8%
COc1cc(OC)cc(C(=O)N2CCC(C(=O)c3ccc(F)cc3)CC2)c1 | 0.9% | -0.8% | · | 0.0%
COc1ccc2cc(Br)ccc2c1CC(=O)NC(C)C | -0.9% | -2.8% | 3.3 | -8.1%
O=C(Cc1cccs1)NCc1cccc(CNC(=O)Cc2cccs2)c1 | -0.1% | 0.4% | 1.0 | 3.9%
CCn1cc(C(=O)NC2CCCCCC2)c(=O)c2cc(S(=O)(=O)N3CCCCC3)ccc21 | · | 1.0% | · | -2.8%
C=CCSc1nnc2c(n1)OC(c1ccccn1)N(C(C)=O)c1ccccc1-2 (configuration not stated) | 0.1% | -0.5% | -0.8 | -0.8%
COc1ccc(N2CCN(C(CNC(=O)OCc3ccccc3)c3ccco3)CC2)cc1 (configuration not stated) | -1.8% | -2.7% | -2.4 | 15.5%
O=C(CSc1nnc(-c2ccc(O)cc2)n1Cc1ccco1)c1cccs1 | -3.1% | 0.7% | -6.4 | -11.6%
COc1ccc(N(CN2C(=O)C3CCCCC3C2=O)C(=O)c2ccco2)cc1 (configuration not stated) | -4.7% | 0.2% | 1.7 | 48.1%
Cc1ccc(C2(C)NC(=O)N(CC(=O)NNC(=O)c3ccccc3F)C2=O)cc1 (configuration not stated) | · | 0.0% | · | -8.1%
Cc1ccccc1CSc1nc2[nH]ncc2c(=O)[nH]1 | -24.0% | 0.9% | -2.8 | 0.8%
Cc1ccc(SCCCn2cncn2)cc1 | -1.2% | 1.6% | 5.7 | -13.5%
CCn1c(SCC(=O)Nc2ccc3c(c2)OCCO3)nnc1-c1ccco1 | -4.2% | -0.9% | -1.8 | -6.1%
N#Cc1ccc(NC(=O)CCc2ccc(S(=O)(=O)N3CCOCC3)cc2)cc1 | 5.0% | 2.4% | 2.7 | 0.6%
C=CCNC(=O)COC(=O)COc1ccc(Cl)cc1C | -2.7% | 1.0% | 12.1 | 6.3%
Cc1ccc(CSc2nc3c(cc2C#N)CCC3)cc1 | -11.5% | -2.6% | -3.0 | 25.7%
Cc1c(CN2CCc3c([nH]c4ccccc34)C2CC(C)C)cnn1C (configuration not stated) | -10.9% | -0.4% | 1.8 | 1.9%
O=C(CNC(=O)c1ccc(Cl)cc1)NNc1c(F)c(F)cc(F)c1F | · | -2.5% | · | -0.5%
COc1cc(CNn2c(C)n[nH]c2=S)cc(Br)c1OCC(=O)NC(C)(C)C | 0.3% | 0.1% | · | 9.1%
CCOc1ccc(S(=O)(=O)Nc2ccccc2C(=O)N2CCOCC2)cc1 | -3.0% | -2.1% | · | -5.5%
CCN(CC)C(=O)Cc1cn(C)c2ccccc12 | 0.3% | -1.4% | 1.2 | 0.8%
CCOc1ccc(C(=O)c2cccs2)cc1 | -53.4% | -3.6% | 4.3 | -10.4%
COc1ccc(CCNC(=O)c2ccc(=O)[nH]n2)cc1OC | -2.2% | -2.4% | -6.5 | 2.8%
Cc1ccccc1NC(=O)COC(=O)/C=C/c1cn(-c2ccccc2)nc1-c1cccnc1 | -2.4% | 2.6% | -10.6 | 3.7%
C=C(C)COC(=O)c1ccccc1C(=O)OCC1(C)CO1 (configuration not stated) | · | -2.7% | · | 0.5%
Nc1ncnc(NNC(=O)CNC(=O)c2c(F)cccc2Cl)c1[N+](=O)[O-] | -11.2% | -1.4% | -0.1 | -11.0%
CC1CCCC(C)N1C(=O)COc1ccc(-c2nnco2)cc1 (configuration not stated) | -7.4% | 3.3% | -1.5 | 2.5%
OCCC1CN(Cc2ccn[nH]2)CCN1Cc1ccc(F)c(F)c1 (configuration not stated) | 0.8% | 4.3% | 1.0 | 6.0%
CCOc1ccccc1NC(=O)C1CCN(S(=O)(=O)c2cccc3cccnc23)CC1 | -12.9% | · | 1.4 | ·
COc1cc(S(=O)(=O)N2CCN(C)CC2)c(OC)cc1Br | 0.3% | 0.0% | -6.3 | -11.5%
COc1ccc(CN(CC2CCCO2)C(=O)CN2C(=O)C(C)Oc3ccc(C)cc32)cc1OC (configuration not stated) | 19.7% | -0.5% | 4.7 | 10.0%
Cc1c(C(=O)OCCN2CCCCC2)oc2ccccc12 | -2.8% | 0.1% | -0.7 | -9.1%
Cc1noc(C)c1C(=O)Nc1sc2c(c1C(N)=O)CCC2 | -6.1% | -3.9% | 2.6 | -21.3%
Cc1cnc(NC(=O)Cc2c[nH]c3ccccc23)s1 | -18.9% | 2.6% | -2.1 | -2.9%
CC(=O)NC(NC(C)=O)c1ccc(N(C)C)cc1 | -4.2% | -7.0% | -13.8 | 14.0%
COc1ccc(S(=O)(=O)NC(N)=NCCc2ccccc2)cc1 | 11.3% | 3.0% | 2.5 | -13.1%
N/C(=N/OCc1cccc([N+](=O)[O-])c1)c1nonc1N | -31.0% | -1.4% | 6.4 | -16.0%
CC1(C)C(=O)Nc2ccccc2N1C(=O)COC(=O)Cc1c(F)cccc1Cl | · | ? | · | -6.7%
CNC(=S)N1CCc2cc(OC)c(OC)cc2C1 | -1.8% | 1.2% | -1.9 | -11.3%

Further entries follow.
SMILES | miR-21 FLuc | Rango complex inh | GLA inh pH 4.5 | Rango dissoc inh
CCn1c(=O)c2cc(C(=O)N(C)c3ccc(OC)cc3OC)sc2c2ccccc21 | -14.9% | -0.3% | -1.4 | -2.4%
O=C(O)c1cc([N+](=O)[O-])ccc1NCCc1ccccc1 | -1.8% | 1.4% | -0.3 | -13.4%
CC(OC(=O)/C=C/c1cccc(F)c1)C(=O)NC1CCCCC1C (configuration not stated) | -1.0% | -0.9% | · | -0.1%
COc1ccc(OC)c(S(=O)(=O)NCc2ccccn2)c1 | 3.4% | -1.4% | · | -0.3%
O=C(COC(=O)c1cc(=O)c2ccccc2o1)NCc1ccccc1 | · | 0.2% | · | -1.0%
CCC(C(=O)NC(CC(=O)O)c1ccc(Cl)cc1)c1ccccc1 (configuration not stated) | 2.0% | -1.8% | · | 9.4%
Cc1csc2c(N3CCN(C(=O)Nc4ccccc4)CC3)ncnc12 | 0.8% | 4.4% | -4.2 | -7.1%
Cc1onc(-c2ccccc2)c1C(=O)NC1CCC(C)CC1 (configuration not stated) | · | 1.0% | · | -1.6%
COC(=O)CNC(=O)C(Cc1c[nH]c2ccccc12)NC(=O)OC(C)(C)C (configuration not stated) | -1.2% | -1.4% | -0.1 | -2.5%
O=C(NC(=S)Nc1ccc(S(=O)(=O)N2CCCC2)cc1)C1CCC1 | 1.1% | -3.6% | -1.6 | ?
Cc1nn(-c2ccccc2)c(Cl)c1C1C(C#N)=C(N)Oc2n[nH]c(C)c21 (configuration not stated) | -2.9% | -0.5% | -2.3 | -9.2%
O=C(CN1CCN(c2ccc(F)cc2)CC1)NCc1cccs1 | -0.5% | -0.7% | -11.7 | ?

A second format for 2 compounds above:
SMILES	miR-21 FLuc	Rango complex inh	GLA inh pH 4.5	Rango dissoc inh
O=C(CN1CCN(c2ccc(F)cc2)CC1)NCc1cccs1	-0.5%	-0.7%	-11.7	?
CC(OC(=O)/C=C/c1cccc(F)c1)C(=O)NC1CCCCC1C (configuration not stated)	-1.0%	-0.9%	·	-0.1%

Other structures follow:
SMILES | miR-21 FLuc | Rango complex inh | GLA inh pH 4.5 | Rango dissoc inh
Cc1cn([C@H]2C[C@H](O)[C@@H](CCC(=O)NCCN3CCCCC3)O2)c(=O)[nH]c1=O | · | -0.3% | · | 22.1%
COc1cc(C2Nc3cccc4cccc(c34)N2)cc(OC)c1O | 2.7% | -1.0% | -10.1 | 0.8%
Cc1cc(Nc2ccccc2)c2c([N+](=O)[O-])ccc(C)c2n1 | -13.2% | -1.9% | 8.2 | 8.3%
CCOc1cc(/C=N/O)cc(Br)c1OCc1ccc(Cl)cc1 | 1.0% | -0.7% | -12.0 | 11.8%
CCC(=O)Nc1cccc(-n2nnnc2SCC(=O)N2CCCCC2)c1 | -20.2% | -1.6% | 11.3 | -5.8%
O=C(CN1CCCCCC1)Nc1cccc(NC(=O)CN2CCCCCC2)c1 | -6.2% | 1.0% | · | 2.9%
O=C(Cc1cccc(NC(=O)C2CCN(C(=O)c3ccccc3)CC2)c1)Nc1cccc(C(=O)N2CCCCC2)c1 | · | -3.0% | · | 30.4%
CN(C(=O)c1ccc(OC2CCN(CCc3ccccc3)CC2)cc1)C1CCCCC1 | -7.0% | 0.6% | 3.0 | -4.9%
CCC(NC(=O)NNC(=O)c1ccncc1)(C(F)(F)F)C(F)(F)F | 1.2% | -1.4% | 2.1 | 14.9%
O=Cc1cccn1-c1cccc([N+](=O)[O-])c1 | -1.5% | 3.4% | 2.3 | 1.7%
C[C@H](NC(=O)c1ncn(C)c1C(=O)N[C@@H](C)c1ccccc1)c1ccccc1 | · | ? | · | ?
CN(CC(=O)Nc1c(Cl)cccc1Cl)C(=O)C1=COCCO1 | · | -0.4% | · | 1.6%
O=S(=O)(NCC1(N2CCOCC2)CCCCC1)c1ccc(Cl)cc1C(F)(F)F | 4.7% | 2.5% | · | -5.7%
CCOC(=O)C1=C(CC)OC(N)=C(C#N)C1c1ccc(OC)c(OC)c1OC (configuration not stated) | -3.2% | -1.9% | -6.9 | -12.7%

High-throughput results as filed in PubChem.
